GIV-Gai inh = inhibitors of GIV peptide binding to Galpha-i3, primary screen, biochemical, fluorescence polarization, FITC-GIV GBA peptide, rat Galphai3; percent of control (FP), % (concentration not given with the values); 90 min; hits give low values; scaled: aluminum fluoride 0%, vehicle 100%; AID 1224905, 2016; 210,000 compounds, 0.42% hits;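 active = replicate mean at 85% of control or lower, very high polarization wells dropped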;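 note: wells of about 15 µL received 100 nL stock; the first replicate is given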
Target sequence (P08753 whole entry, looked up): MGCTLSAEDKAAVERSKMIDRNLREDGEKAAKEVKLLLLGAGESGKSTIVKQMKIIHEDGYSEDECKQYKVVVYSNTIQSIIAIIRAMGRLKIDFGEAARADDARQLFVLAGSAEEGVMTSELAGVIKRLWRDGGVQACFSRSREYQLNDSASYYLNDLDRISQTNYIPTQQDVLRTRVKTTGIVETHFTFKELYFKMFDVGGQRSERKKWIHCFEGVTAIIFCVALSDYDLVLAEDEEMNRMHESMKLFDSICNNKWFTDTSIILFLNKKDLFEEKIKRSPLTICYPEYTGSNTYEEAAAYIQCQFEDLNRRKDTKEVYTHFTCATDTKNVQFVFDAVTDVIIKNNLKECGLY
HCMV UL50-53 inh = inhibitors of HCMV UL50-UL53 interaction, biochemical, HTRF; HCMV UL50-UL53 nuclear egress complex (human cytomegalovirus); inhibition, % (concentration not given with the values); normalized percent inhibition; 190,000 compounds, 0.15% hits; AID 1918969, 2023;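 active = both replicates at 50% or more, plus weaker picks with an unusually low signal ratio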;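 note: stock transfer was 100 nL into about 20 µL; 0% = negative control wells and 100% = wells with untagged competitor protein; inactives centre near -12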
Sa growth 42C = S. aureus growth inhibition at 42 and 30 °C, primary screen, LtaS inhibitor project, RN4220, two temperatures. relative growth, % (no concentration beside the values). 170,000 compounds, 0.53% hits. AID 720641, 2013. OD600, 20 h, 42 °C; hits give low values;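 active = growth at 42 °C up to 50% and 20 or more points under that at 30 °C, or under 10% at both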;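 note: 300 nL library stock went into each well; scaled to the means of positive and negative controls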
Sa growth 42C second temp = also measured in Sa growth 42C; calls as there; relative growth, %; measured here: growth at 30 °C;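 optical density after 20 h as mean of two plates; 100% = untreated growth and lower means inhibition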
* marks the source's active call; other numbers are inactive results; . = no result given; & = joins results of further samples.

Values run as follows: GIV-Gai inh, HCMV UL50-53 inh, Sa growth 42C, Sa growth 42C second temp
- Cc1cc(C)c2c(CC(=O)Nc3c(C(=O)c4ccccc4)oc4ccccc34)coc2c1
 : 102, ., 93, 81
- Nn1c(COc2cccc(Br)c2)nnc1SCC(=O)N1CCOCC1
 : ., 15, 104, 103
- CCOC(=O)c1cnc(SCC(=O)OCC(=O)NC2(C#N)CCCC2)nc1N
 : ., -16, 97, 86
- CC(=O)N1CCCc2cc(S(=O)(=O)N3CCC(C(=O)NCc4ccc(F)cc4)CC3)ccc21
 : 100, ., 95, 93
- O=C(CN1CSCC1=O)Nc1cccc(C(=O)NC2CC2)c1
 : ., -4, 94, 90
- Cc1cc(/C=C(/C#N)c2ccc(C(=O)O)cc2)c(C)n1-c1ccc(S(N)(=O)=O)cc1
 : 106, -58, 98, 96
- Cc1onc(-c2ccccc2)c1C(=O)NCCN1CCOCC1
 : 101, -14, 99, 88
- Cc1ccc(S(=O)(=O)N2CCC(C(=O)OCC(=O)c3cc(C)n(C4CC4)c3C)CC2)cc1C
 : ., -18, 93, 96
- CCOC(=O)c1nn(-c2cccc(C(F)(F)F)c2)cc1O
 : ., 15, 98, 93
- COc1cc(CC(=O)OCC(N)=O)cc(OC)c1OC
 : ., 6, 96, 87
- Fc1ccccc1C=Nc1cccc2ccccc12
 : 104, ., 118, 89
- CC(=O)Nc1ccc(OC(F)(F)C(F)F)c(NC(C)=O)c1
 : ., -33, 97, 90
- Cc1cccc(C(=O)Nc2ccc3nc(SCC(=O)N4CCc5ccccc54)sc3c2)c1
 : 103, 20, 99, 94
- O=S(=O)(NCc1cccs1)c1ccc(-c2cc(C(F)(F)F)no2)s1
 : 104, -6, 98, 97
- COCC(C)NC(=S)N1CCN(c2ccccc2Cl)CC1 (stereo not given)
 : ., -11, 67, 83
- CC1CCN(S(=O)(=O)c2ccc3c(ccn3CC(=O)NCc3ccccc3F)c2)CC1
 : 106, ., 81, 93
- Cn1c(=O)c2c(nc(Sc3nnc(NC(=O)c4ccccc4Br)s3)n2C)n(C)c1=O
 : 91, 6, ., .
- O=C(COC(=O)c1ccco1)NC1CCCCC1
 : ., 0, 105, 84
- O=C(c1ccccc1F)n1c(=O)oc2ccccc21
 : 113, -21, ., .
- COc1ccc(CCNc2oc(COc3ccc(Cl)cc3)nc2C#N)cc1OC
 : 97, -2, 111, 100
- COc1ccccc1N(CC(=O)NCCSCc1ccccc1)S(C)(=O)=O
 : 102, -8, 102, 90
- Cc1ccc2nc(SCC(N)=O)oc2c1
 : 106, 5, 98, 95
- CCOc1ccccc1N1CCN(C(=O)[C@H](C)NC(N)=O)CC1
 : ., -3, 75, 89
- COc1cccc(NC(=O)COc2ncnc3ccccc23)c1
 : ., 19, 98, 97
- O=C(Nc1ccccc1F)c1ccc(S(=O)(=O)c2ccc(Br)cc2)nc1
 : 101, 7, ., .
- CCOc1ccc(N=Nc2c(C)n[nH]c2C)cc1
 : ., -46, 68, 81
- O=C(Cn1cc(C(=O)c2ccncc2)c(=O)c2cc(F)ccc21)Nc1ccc(Cl)cc1
 : 106, ., 95, 89
- C=CCc1cc(/C=C2\C(=O)NC(=S)N(c3ccc(OCC)cc3)C2=O)cc(OC)c1OCC(=O)O
 : 101, 2, ., .
- O=c1ccc2cc(N=Cc3cc(Cl)cc(Cl)c3O)ccc2o1
 : 105, -12, 91, 83
- COc1ccc(-c2noc(CCCn3c(=O)[nH]c4cc5c(cc4c3=O)OCO5)n2)c(OC)c1
 : 107, 1, ., .
- NNc1nc(N2CCOCC2)nc(N2CCOCC2)n1
 : 92, -27, 82, 99
- COc1cccc(CN(C)S(=O)(=O)c2ccc(C)cc2)c1
 : ., -7, 97, 84
- CCOC(=O)COC1=C(c2ccccc2)C(=O)c2ccccc2C1=O
 : 96, 46, 5.9*, 0.2*
- C=CCNC(=O)c1cccc(OC)c1
 : 101, -26, 94, 83
- CCc1ccc(C2CC(c3ccccc3)=NN2C(=O)CCCC(=O)O)cc1 (stereo not given)
 : 109, ., 125, 69
- CC1CCCCC1NC(=O)c1cnn2c(C(F)(F)F)cc(-c3ccccc3)nc12 (stereo not given)
 : 103, ., 99, 94
- O=C1OCC2=C1C(c1ccc3c(c1)OCO3)CC(=O)N2c1ccccc1 (stereo not given)
 : 105, -16, 111, 81
- COc1ccc(CC(=O)NC2CC(=O)N(c3ccc4c(c3)OCCO4)C2)cc1 (stereo not given)
 : 102, ., 85, 98
- Cc1cc(C)nc(/N=C(\N)N2CCc3ccccc32)n1
 : 104, -14, 107, 75
- CCC(O)c1nc2ccccc2n1CC(=O)N(C)c1ccccc1 (stereo not given)
 : 103, -18, ., .
- O=C(NCCCN1CCN(c2ccc(F)cc2)CC1)Nc1ccccc1Cl
 : 106, 16, 98, 97
- COc1ccc(C(=O)NC(=S)Nc2ccc3[nH]c(=O)[nH]c3c2)cc1OC
 : 101, ., 89, 78
- O=C(CCc1nc2sc3c(c2c(=O)[nH]1)CCCCC3)N1CCN(c2ccc(Cl)cc2)CC1
 : 103, -10, ., .
- COc1ccc(CCNC(=O)CSc2ccc(-c3ccco3)nn2)cc1
 : 101, -48, 94, 80
- CCN(CCNc1cc(C)nc2c(-c3ccccc3OC)c(C)nn12)c1ccccc1
 : 105, -28, ., .
- c1ccc(-n2nnnc2Sc2ncnc3ccccc23)cc1
 : ., -3, 95, 81
- CCc1cccc(C)c1NC(=O)C(NS(=O)(=O)c1ccc2c(c1)CCC(=O)N2)c1ccccc1 (stereo not given)
 : 101, -34, 101, 90
- CCn1nc(C(=O)Nc2ccc(S(=O)(=O)Nc3ncccn3)cc2)c2ccccc2c1=O
 : ., -18, 91, 92
- Cc1cc(C)c(CN2C(=O)c3ccccc3S(=O)(=O)c3ccc(C(=O)OCC4CCCO4)cc32)c(C)c1 (stereo not given)
 : 107, ., 80, 74
- O=C(Oc1ccc2c(c1)OCO2)c1c(Cl)cccc1Cl
 : ., -16, 91, 86
- O=C(c1cnc2cc3c(cc2c1)OCCO3)c1ccccc1O
 : ., -111, 86, 71
- Cc1nc2cc(NC(=O)c3ccc(S(=O)(=O)N4CCCC4)cc3)ccc2s1
 : 104, 1, ., .
- c1ccc(C(c2nnnn2C2CCCC2)N2CCN(c3ccccc3)CC2)cc1 (stereo not given)
 : 106, 26, 74, 119
- Clc1ccc(-c2ccn[nH]2)c(Cl)c1
 : 107, 5, 128, 82
- O=C(Nc1ccc(Cl)cc1)N1CCN(c2ccc3nnc(-c4ccccc4)n3n2)CC1
 : 103, 1, 119, 81
- CCC(C(=O)OC)n1c(-c2ccccc2)nc2ccccc2c1=O (stereo not given)
 : 100, 2, 121, 95
- COc1ccc(C(=O)NC2=C(C(=O)c3ccccc3)N(Cc3ccccc3)S(=O)(=O)c3ccccc32)cc1
 : 107, -14, ., .
- COC(=O)c1cc(-c2ccco2)nc2c1c(=O)n(C)c(=O)n2CC(C)C
 : ., -16, 95, 89
- COC(=O)c1sc(NC(=O)c2ccco2)c(C#N)c1C
 : 104, -6, 117, 80
- O=C(OCCN1CCCCC1)c1cccc(F)c1
 : ., -10, 88, 83

More compounds.
Values run as follows: GIV-Gai inh, HCMV UL50-53 inh, Sa growth 42C, Sa growth 42C second temp
- CCc1ccc(N2NC(=O)C(=C(C)C)C2=O)cc1
 : 101, ., 81, 77
- O=C(Cn1cc(S(=O)(=O)Cc2cccc(Cl)c2)c2ccccc21)NCC1CCCO1 (stereo not given)
 : 108, -11, ., .
- Cc1ccc(C(=O)Cn2c(-c3ccccc3)noc2=O)cc1
 : 105, -6, 93, 71
- O=C(Nc1ncc(C(O)(C(F)(F)F)C(F)(F)F)s1)c1ccccc1Cl
 : ., -19, 84, 90
- CN(C(=O)C1CC1)c1ccccc1C(=O)NCc1ccccc1
 : 102, -13, 104, 100
- O=C(CC1C(=O)N(c2ccc(F)cc2)C(=O)N1Cc1ccc2c(c1)OCO2)Nc1ccc(F)cc1 (stereo not given)
 : 102, -25, 98, 70
- CCCCN(C)CCNC(=O)C1CCCN(S(=O)(=O)c2ccc3c(c2)oc(=O)n3C)C1 (stereo not given)
 : 106, -35, 102, 87
- CN(C)C(CNC(=O)Cc1n[nH]c(=O)c2ccccc12)c1cccs1 (stereo not given)
 : ., 8, 114, 91
- CC1(C)CC(=O)C2=C(C1)NC(Nc1nc3ccccc3o1)=NC2c1ccccc1 (stereo not given)
 : 101, ., 117, 92
- COc1ccc(/C=N/n2c(=S)[nH]nc(C)c2=O)cc1
 : 103, -44, 104, 85
- CCCn1c(N)c(C(=O)CSc2nnc(Nc3cccc(OC)c3)s2)c(=O)n(C)c1=O
 : ., -5, 97, 101
- O=C(OCc1ccccn1)C1CCCCN1S(=O)(=O)c1ccccc1 (stereo not given)
 : ., -28, 89, 86
- Cc1ccc(N(CC(=O)NCC(C)c2ccccc2)S(=O)(=O)N(C)C)cc1 (stereo not given)
 : 99, ., 102, 85
- CCC(=O)N1C2C=CC(C2)C1(C(F)(F)F)C(F)(F)F (stereo not given)
 : 100, 10, 96, 108
- Cc1nc2ccccc2c(=O)n1NC(=O)C1CCCCC1
 : 101, -1, 96, 97
- Cc1nnc(SCC(=O)N2CCCC2)s1
 : 105, 12, 96, 97
- CN(C)c1ccc(CNC(=O)CCn2cccn2)cc1
 : 99, ., 84, 90
- CN(C)S(=O)(=O)c1cccc(C(=O)NC(C)(C)C)c1
 : ., -11, 102, 89
- COc1cccc(-c2noc(COc3ccccc3Cl)n2)c1
 : 110, -16, 106, 88
- Cc1nn2c(=O)cc(COC(=O)c3ccc(NC(=O)c4cccc(Br)c4)cc3)nc2s1
 : 103, ., 83, 97
- CCNC(=O)c1ncoc1-c1cccs1
 : 108, -62, 110, 87
- CCCn1c2ccccc2c2cnn(CC(=O)N(Cc3ccccc3)C(C)C)c(=O)c21
 : 107, ., 97, 92
- Cc1c2c(n3c(nc4ccccc43)c1C#N)SCC2
 : 101, -21, 97, 92
- C/C=C(/C(=C/C)c1ccc(O)cc1)c1ccc(O)cc1
 : ., -2&-10, 79, 77
- CCOC(=O)c1sc(NC(C)=O)cc1C
 : 101, -22, 96, 90
- COc1ccc(NC(=O)C2CCN(C(=O)c3cccn3-c3cccnc3)CC2)cc1
 : 107, -33, ., .
- COC(=O)C1=C(C)NC(=O)NC1c1cn(-c2ccccc2)nc1-c1ccc(F)cc1 (stereo not given)
 : 105, -26, 99, 90
- Cc1nnc(C)n1/N=C/C=C\c1ccco1
 : ., -22, 110, 99
- O=C(Nc1ccc(F)c(Cl)c1)N1CCC2(CC1)Oc1ccccc1C(=O)N2Cc1ccccc1F
 : 103, -18, 104, 87
- COc1cc(=O)n(-c2ccccc2)nc1C(=O)NC1CCCC1
 : 96, -13, ., .
- Cc1ccc(-c2nnc(SCc3cccc(C#N)c3)o2)cc1
 : 107, -26, 78, 86
- CSc1nc(-c2ccccc2)nc(SC)c1C#N
 : 103, -15, 110, 86
- COc1cccc(C(=O)Nc2nnc(CCS(=O)(=O)c3ccc4ccccc4c3)s2)c1
 : 105, 8, ., .
- O=C(Cn1c2ccccc2c(=O)c2ccccc21)Nc1ccc(Oc2ccc3c(c2)C(=O)N(Cc2ccco2)C3=O)cc1
 : 102, -16, ., .
- O=C(NCc1ccccc1)c1c[nH]c2ccc(S(=O)(=O)Nc3ccccc3F)cc2c1=O
 : 97, 1, 115, 76
- COc1ccccc1NC(=O)CC(=O)Nc1ccccc1OC
 : ., -29, 102, 87
- O=C(NCc1ccccn1)c1nnc(-c2cccc(Cl)c2)o1
 : 104, ., 106, 84
- O=c1[nH]c2cc3c(cc2[nH]c1=O)OCCO3
 : ., -56, 71, 90
- COc1ccc2oc(=O)c(C(=O)NCc3ccc4c(c3)OCO4)cc2c1
 : 104, -14, 93, 94
- Cc1ccc(NC(=O)Cn2cc(S(=O)(=O)N3CCN(c4ccccc4F)CC3)c3ccccc3c2=O)cc1F
 : 105, -2, 104, 86
- CC(C)CCNC(=O)C1CCN(C(=O)N(C)C)CC1
 : 106, ., 78, 87
- Oc1ccc(C2CC(c3ccccc3O)=Nc3ccccc3S2)cc1 (stereo not given)
 : 110, -8, 61, 47
- O=C(O)C1CC(=O)N(Cc2ccc3c(c2)OCO3)C1 (stereo not given)
 : 51*, 30, ., .
- CC1=C(C(=O)Nc2ccc(C)cc2Cl)C2(CCCCC2)OC1=O
 : 114, 1, 104, 99
- CCNC(=O)CC1C(=O)N(c2ccccc2)C(=O)N1Cc1ccc(C)cc1 (stereo not given)
 : 105, 2, 106, 100
- COC(=O)c1ccccc1NC(=O)N1CCC(c2nc(-c3ccccc3)no2)CC1
 : 97, -36, ., .
- CCCc1nc2nc(C)cc(Nc3ccc(Br)cc3F)n2n1
 : 96, -3, ., .
- COC(=O)COc1ccc2c(c1)C(=O)c1cc(OCC(=O)OC)ccc1-2
 : 102, -12, 89, 87
- Cc1cc(=O)[nH]c(-n2nc(C)cc2NC(=O)c2ccccc2Br)n1
 : 102, -7, ., .
- CCN(C(=O)c1sc2nc3n(c(=O)c2c1C)CCCC3)c1ccccc1
 : 110, -21, 80, 78
- O=C(COc1cc(O)c2c(=O)cc(-c3ccccc3)oc2c1)c1ccccc1
 : 102, ., 135, 85

No enrichment for hits; overall some 0.83% were active at least once.
